Vaccinia Venus: inhibitors of vaccinia virus (Venus reporter); Vaccinia virus Venus reporter expression, fluorescence; Potency, µM (top dose mostly 36.5 µM), for the others: top-dose activity change, negative = inhibition, hits mostly inhibitors; 330,000 tested, 0.46% active; AID 720580; active means well fitted inhibition curve with a large enough effect; inconclusive means small, poorly fitted or top-dose-only effect; inactive means no such curve, though single readings can be large or run the other way; tested in A549 cells; further: nearly all actives have a fitted effect of over 30% in size; inactives centre near -10
Vaccinia mCherry: vaccinia inhibition (mCherry reporter) | 310,000 tested, 0.63% active | Vaccinia virus mCherry reporter infection, fluorescence; about a quarter of the inactives have no number | Potency, µM (highest dose often 36.5 µM), for inactives: at the highest dose activity change, negative = inhibition, hits mostly inhibitors; active = well fitted inhibition curve with a large enough effect; inconclusive = small, poorly fitted or top-dose-only effect; inactive = no such curve, though single readings can be large or run the other way; tested in A549 cells; further: nearly all actives have a fitted effect of over 35% in size; inactives centre near -10
The depositor's hits bear a star; i = inactive; ? = inconclusive; . = no result given; [ ] = another dose, or the depositor's remark. On the % scale 0 is the no-effect control and ±100 the full control effect; potency means the concentration at half of the fitted maximal effect.

SMILES	Vaccinia Venus	Vaccinia mCherry
Cc1c(C(=O)N2CCNCC2)oc2ccccc12	-7%	-5%
CCOC(=O)c1nc(-c2ccc3c(c2)OCO3)[nH]c1C	-16%	-13%
Cc1ccc(CNC(=O)C(Cc2ccccc2)NS(=O)(=O)c2cccs2)cc1 (centres undefined)	-20%	-7%
CCCCOC(=O)c1ccc(NC(=O)c2cnc3ccc(C)cn3c2=O)cc1	-11%	-14%
CCCC(=O)N1CCN(Cc2ccc3c(c2)OCO3)CC1	-13%	i
CC(C)c1ccc(NC(=O)CCCN2C(=O)NC(C)(C)C2=O)cc1	-6%	i
CCOc1cc(N2CCOCC2)c(OCC)cc1NC(=O)COC(=O)c1ccc(Cl)nc1	3%	-10%
COc1ccccc1CN(C)C(=O)COC(=O)c1c(C)noc1C	-10%	i
CCOc1ccc(NC(=O)CSc2nnc(CNC(=O)c3cccs3)o2)cc1	-11%	i
CN(C)CC1CCC/C(=C/c2ccc(Cl)cc2)C1=O (centres undefined)	-12%	i
CCCCN(C1CCS(=O)(=O)C1)S(=O)(=O)c1ccc(C(C)C)cc1 (centres undefined)	-10%	i
CC(NCC(=O)Nc1ccccc1C(=O)NC1CC1)c1cccc(Cl)c1 (centres undefined)	-13%	i
CC(N)Cc1c[nH]c2cc3c(cc12)OCCO3 (centres undefined)	-5%	.
Cc1cccc(CCNC(=O)C2CCN(S(=O)(=O)c3ccccc3)CC2)c1	-4%	-12%
Cc1ccc2nc(SCC(=O)N(CC(C)C)c3c(N)n(CC(C)C)c(=O)[nH]c3=O)[nH]c2c1	-16%	.
O=C(NNc1ncnc2c1cnn2-c1ccccc1)c1ccccc1	-5%	-14%
Cc1ncc(CO)c(/C=N/NC(=S)Nc2ccc(Cl)c(Cl)c2)c1O	-17%	-19%
COc1cc(OC)cc(/C(N)=N/O)c1	-18%	-4%
[2H]c1c([2H])c([2H])c(-c2nc(N3CCCCCC3)sc2C(=O)c2ccccc2)c([2H])c1[2H]	-17%	.
CC(Sc1nnc2ccc3ccccc3n12)C(=O)Nc1ccc(Cl)cc1 (centres undefined)	-17%	-17%
CSc1nc(N)nc(SCC(=O)c2ccccc2)c1C#N	-30%	.
CCOC(=O)N(C)c1c(CC)nc2c(OCc3ccc(F)c(F)c3)cccn12	-2%	3%
Cc1ccc(NC(=O)CCn2nc(C)cc2C)c(C)c1	-9%	.
O=C(CN1C(=O)C2C3c4ccccc4C(c4ccccc43)C2C1=O)Nc1ccccc1C(=O)O (centres undefined)	-12%	-14%
CCOC(=O)c1cc(=O)n2[nH]c(-c3ccc(C)cc3)cc2n1	-5%	.
O[C@H]1CN(Cc2cccs2)[C@@H](c2ccccc2)C[C@@H]1n1cc(-c2ccc(F)cc2)nn1	-17%	i
Cc1ccc2c(c1)nnn2C1CCN(S(=O)(=O)c2ccc(C(=O)NC3CCCC3)cc2)CC1	-7%	-2%
CCCN1CCN(CC(O)COC(c2ccc(OC)cc2)c2ccc(OC)cc2)CC1 (centres undefined)	-1%	-7%
O=C(NC(=S)NCc1ccco1)c1ccc([N+](=O)[O-])cc1	-15%	-19%
CC1CN(c2ccccc2)c2nc3c(c(=O)[nH]c(=O)n3C)n2C1 (centres undefined)	?	-20%
CCOc1cccc2c1OC(c1cc(OC)c(OC)c(OC)c1)N1N=C(c3ccc(C)o3)CC21 (centres undefined)	-11%	-30%
CC(C)Oc1ccc(C2C(C#N)=C(N)Oc3c2c(=O)oc2ccccc32)cc1 (centres undefined)	-12%	-13%
O=C(CSc1nnnn1C1CC2C=CC1C2)Nc1ccc(C(=O)O)cc1 (centres undefined)	-3%	i
CCCCn1c(-c2ccc(Br)cc2F)nc2c1c(=O)[nH]c(=O)n2CC(C)C	0%	i
Cc1cc(C)n(-c2nc3ccccc3nc2Nc2cccc(C(=O)NCCc3ccccc3)c2)n1	-6%	-21%
Cc1ccc(C)c2c3c([nH]c12)-c1nonc1CC3	-11%	.
CC(=O)N1CCc2cc(S(=O)(=O)Nc3ccc(C)cc3)ccc21	-13%	-21%
CCC(C)n1c(SCC(=O)Nc2ccccc2C(=O)OC)nc2ccsc2c1=O (centres undefined)	-10%	-6%
O=C(Nc1nc2nc(-c3ccccc3)cc(=O)n2[nH]1)c1ccccc1	-19%	.
Cc1csc(NC(=O)c2cccs2)n1	-17%	-13%
CCOc1ccc(-n2nnc3c(=O)n(CC(=O)NCc4ccco4)cnc32)cc1	-4%	i
COc1ccc2nc(NC(=O)c3cc(=O)c4cc(C)cc(C)c4o3)sc2c1	-1%	10%
Cc1sc(NC(=S)NC(=O)c2ccco2)c(C(N)=O)c1C	-1%	1%
O=C(O)Cc1csc(-c2ccccc2)n1	-9%	i
COCCCNC(=O)Cn1ncc2ccsc2c1=O	11%	-4%
O=c1ccn([C@@H]2O[C@H](CNCc3cccn3-c3ccncc3)[C@@H](O)[C@H]2O)c(=O)[nH]1	-18%	i
CCC(c1nnnn1Cc1cccs1)N1CCN(c2nc3ccccc3s2)CC1 (centres undefined)	?	-26%
CSc1ncccc1C(=O)N1CCOc2ccc(C(C)(O)CCn3cccn3)cc2C1 (centres undefined)	-1%	i
Cc1ccc(Nc2ncc3c(n2)CC(c2ccco2)CC3=O)c(C)c1 (centres undefined)	-19%	.
O=C(CN1CCN(C(=O)c2cccc(F)c2)CC1)Nc1ccccc1F	19%	-8%
(continued)
SMILES	Vaccinia Venus	Vaccinia mCherry
COc1ccc2[nH]c(C(=O)O)c(CCC(=O)O)c2c1	3%	-9%
Cc1nn(C)c(=O)n1-c1ccccc1	-8%	-9%
CCn1c(CC(=O)Nc2ccc(F)cc2)nnc1SCC(=O)Nc1nncs1	-7%	i
O=C(NCC(c1cccnc1)N1CCc2ccccc21)c1cccc(C(F)(F)F)c1 (centres undefined)	-17%	-8%
CC(C)=CCCC1=CCC(/C(C)=N/NC(N)=O)CC1 (centres undefined)	-4%	-14%
COc1cccc(NC(=O)CSc2ncnc3c2oc2ccccc23)c1	-29%	?
O=C1c2ccccc2-c2ccc(C(=O)N3CCCCC3)cc21	-13%	-7%
CCCCC(CC)CN1C(=O)/C(=C/c2ccncc2)SC1=S (centres undefined)	?	.
O=C(CSc1nnc(CNC(=O)c2cccs2)o1)Nc1ccc(Cl)cc1	-6%	-4%
O=c1[nH]cnc2scc(C3COc4ccccc4O3)c12 (centres undefined)	-9%	i

In another format: entries from further up
Values run as follows: Vaccinia Venus	Vaccinia mCherry
CC(=O)N1CCc2cc(S(=O)(=O)Nc3ccc(C)cc3)ccc21
 : -13%	-21%
CCOc1ccc(-n2nnc3c(=O)n(CC(=O)NCc4ccco4)cnc32)cc1
 : -4%	i
CCOc1cccc2c1OC(c1cc(OC)c(OC)c(OC)c1)N1N=C(c3ccc(C)o3)CC21 (centres undefined)
 : -11%	-30%
CCC(C)n1c(SCC(=O)Nc2ccccc2C(=O)OC)nc2ccsc2c1=O (centres undefined)
 : -10%	-6%

Whole records, looked up by structure. Values in the order: Vaccinia Venus	Vaccinia mCherry
Profile of COc1ccc2nc(NC(=O)c3cc(=O)c4cc(C)cc(C)c4o3)sc2c1 = -1%	10%
Profile of CN(C)CC1CCC/C(=C/c2ccc(Cl)cc2)C1=O (centres undefined) = -12%	i
Profile of O=C(O)Cc1csc(-c2ccccc2)n1 = -9%	i
Profile of CCOC(=O)N(C)c1c(CC)nc2c(OCc3ccc(F)c(F)c3)cccn12 = -2%	3%
Profile of O=C1c2ccccc2-c2ccc(C(=O)N3CCCCC3)cc21 = -13%	-7%

The list goes on:
SMILES	Vaccinia Venus	Vaccinia mCherry
Cc1nc(-c2ccc(Cl)cc2)sc1C(=O)NN	-28%	?
CSc1ccccc1-n1nnnc1SCC(=O)NCc1cccs1	-29%	.
O=C(CSCc1ccccc1)Nc1ccc(S(=O)(=O)Nc2ncccn2)cc1	-10%	-9%
COc1ccc(CNC(=S)Nc2cc(C)ccc2C)cc1	-13%	i
COc1ccc(N2CCN(C(=O)CCc3c(C)nc4cc(-c5cccc(F)c5)nn4c3C)CC2)cc1	5%	3%
CCOC(=O)C1(CCCc2ccccc2)CCN(C(=O)C2CCCO2)CC1 (centres undefined)	-9%	i
COc1ccc(S(=O)(=O)Nc2cccc(-c3ccc(N4CCCC4)nn3)c2)cc1OC	-16%	-20%
O=C(COC(=O)C1CC(=O)N(c2ccccc2)C1)c1ccccc1 (centres undefined)	-7%	-6%
CCc1nnc(NC(=O)c2nc(SC)ncc2Cl)s1	6%	0%
O=C(Nc1ccc2c(c1)Cc1ccccc1-2)c1ccco1	-15%	-14%
CC(C)(C)NCc1cccn1-c1sc2c(c1C#N)CCCC2	4%	-14%
O=C(O)c1ccc(NC(=S)Nc2ccc(S(=O)(=O)Nc3ccccn3)cc2)cc1	-9%	-14%
O=C1CCCC2=C1C(c1cn(-c3ccccc3)nc1-c1cccs1)c1c([nH]c(=O)[nH]c1=O)N2 (centres undefined)	-13%	i
O=[N+]([O-])c1ccc(COc2ccc(CN3CCOCC3)cc2)cc1	-22%	-25%
CCCN=C1NC(=O)C(CC(=O)NCCc2ccccc2)S1 (centres undefined)	-8%	-12%
COc1ccc(N(CC(=O)NCc2ccco2)C(=O)CCC(=O)Nc2nccs2)cc1	-4%	i
COc1ccc(/C=C(/NC(=O)c2ccc(C)cc2)c2nc3ccccc3[nH]2)cc1OC	-14%	.
Cc1ccc(C(=O)Nc2cccc(-c3ccc(N4CCOCC4)nn3)c2)cc1C	0%	i
Cc1nc2ccc(F)cc2cc1C(=O)NCc1ccco1	6%	-6%
COc1cccc(/C=N/NC(=O)CN2C(=O)NC3NC(=O)NC32)c1 (centres undefined)	-15%	-3%
O=C(Nc1ccccc1Cl)Oc1ccc(Cl)cc1Cl	-23%	-5%
Cc1cccc(C)c1NC(=O)Nc1ccc(S(N)(=O)=O)cc1	-8%	i
CC(=O)NC(Cc1c[nH]c2ccccc12)C(=O)N/N=C/c1ccccc1 (centres undefined)	0%	-14%
CCOc1ccc(CCNC(=O)c2cc3ccccn3n2)cc1OCC	-15%	-15%
COCCn1c(SCC(=O)Nc2cc(C)on2)nnc1-c1ccccc1	-6%	i
O=C(COc1cccnc1[N+](=O)[O-])Nc1ccc(Cl)cc1F	-6%	-16%
Cc1ccc(Nc2c(-c3cccnc3)nc3ccc(C)cn23)cc1	-17%	-14%
CCCCOc1ccc(Cn2c(=O)oc3ccc(C)cc32)cc1	-1%	3%
O=C(Cn1cc2c(n1)CCCC2)Nc1cc(C(F)(F)F)ccc1Cl	-9%	-9%
CN1/C(=C\C(=O)COc2ccc3c(c2)OCO3)C(C)(C)c2ccccc21	-4%	-23%

Reprinted from the part before: four entries; new compounds follow.
SMILES	Vaccinia Venus	Vaccinia mCherry
Cc1ccc(Nc2c(-c3cccnc3)nc3ccc(C)cn23)cc1	-17%	-14%
CCCCOc1ccc(Cn2c(=O)oc3ccc(C)cc32)cc1	-1%	3%
O=C(Cn1cc2c(n1)CCCC2)Nc1cc(C(F)(F)F)ccc1Cl	-9%	-9%
CN1/C(=C\C(=O)COc2ccc3c(c2)OCO3)C(C)(C)c2ccccc21	-4%	-23%
COCCNc1nc(NCCN2CCNC2=O)c2sccc2n1	-8%	i
Cc1cc(NC(=O)CSc2nc3cc(Cl)ccc3c(=O)n2C(C)C)no1	-14%	-15%
CCCCc1n[nH]c2c1/C(=N/O)CC(C)(C)C2	-12%	-2%
COC(=O)c1ccc(Cc2ccccc2)o1	-7%	i
O=C1C2C3C=CC(O3)C2C(=O)N1CC(O)c1ccccc1 (centres undefined)	-21%	.
O=C(Nc1ccc(Cl)c(Cl)c1)c1cc(S(=O)(=O)N2CCN(c3cccc(Cl)c3)CC2)ccc1F	-20%	-16%
O=C(N/N=C1\C2CN3CCN(C2)CC1(c1ccccc1)C3)Nc1ccccc1	-4%	i
COCc1cc(=O)n2c([nH]c3ccccc32)c1C#N	-20%	i
CCOC(=O)c1ccccc1OCc1cc(/C=N/NC(=O)c2cccnc2)ccc1OC	-17%	-7%
Cc1ccc(-c2noc(-c3nnn(-c4ccc(Br)cc4F)c3C)n2)cc1	-11%	-9%
CCOc1ccccc1NC(=O)c1nn(C)c2c1CSc1ccccc1-2	-16%	-14%
Cc1ccc(S(=O)(=O)N2CCOCC2)cc1NC(=O)COC(=O)c1ccc(Br)o1	-5%	i
COCc1nnc(NC(=O)C(C)C)s1	-2%	0%
Cc1cccc(N(CC(=O)Nc2ccc(Br)cc2)S(C)(=O)=O)c1C	-11%	-21%
O=c1[nH]cc(S(=O)(=O)N2CCOCC2)c(=O)[nH]1	-12%	-10%
Cc1cc(C)cc(C(=O)Nc2cc(C(F)(F)F)ccc2N2CCN(c3ccccc3)CC2)c1	6%	-5%
Cc1cccc(N=Nc2c(C)c(C#N)c(O)[nH]c2=O)c1	7%	-2%
Cc1ccc(CCNC(=O)C2CC(c3ccc(C(F)(F)F)cc3)=NO2)cc1 (centres undefined)	-6%	i
COc1ccc(C(O)c2nc(-c3ccccc3)cs2)cc1 (centres undefined)	-6%	14%
N/C(=N\OC(=O)c1ccc(Br)cc1)c1ccncc1	-8%	-12%
COc1cccc(CNC(=O)CCc2c(C)c3ccc(O)c(C)c3oc2=O)c1	5%[7.34 µM]	2%[7.34 µM]
O=C1NC(=S)NC1=Cc1ccccc1O	341%[activator]	-15%
O=C(NCCN1CCCC1)c1ccc(CS(=O)(=O)c2c(Cl)cccc2Cl)o1	-4%	-9%
O=C(CCc1ccc(O)cc1)NN=Cc1ccc2c(c1)OCO2	-10%	i
O=C(NCC(=O)N(Cc1ccccc1)C(C(=O)NC1CCCC1)c1cccnc1)c1ccco1 (centres undefined)	-7%	-5%
Cc1cc(/C=C(\C#N)C(=O)O)c(C)n1CCC(C)C	-2%	-1%
CC(=O)Nc1cccc(NC(C)=C(C#N)C#N)c1	-8%	i

Compound activity: PubChem, National Center for Advancing Translational Sciences (NCATS)
